Vaccinia pol inh: vaccinia E9 polymerase processive synthesis inhibition. in vitro processive DNA synthesis, absorbance read-out; stronger effect = lower value; some inactives read as strong as hits. hit rate 0.94% among 46,000. normalized absorbance, % (no concentration beside the values);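 active means replicate mean up to 90% and picked by the depositor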;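 further: 100% = median of the test wells of a plate; 100 nL library stock went into each well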
* hit, by the source's call. Only part of the results is shown, so the mix of outcomes need not match the whole.

SMILES | Vaccinia pol inh
Cc1[nH]n(-c2ccccc2)c(=O)c1C=Nc1cccc(N)c1 | 100
O=c1[nH]c2c(c(=O)n1C1CCCCC1)CCC2 | 100
Cc1ccc2oc(=O)c3cc(C(=O)NCCN4CCCCC4C)sc3c2c1 (stereo unspecified) | 62*
c1ccc(-c2csc3ncn4cnnc4c23)cc1 | 100
CN(CCC#N)C(=O)c1ccc2c(c1)N(Cc1ccc(F)cc1)C(=O)c1ccccc1S2(=O)=O | 83
CCn1c(O)c(/C=C2/C=CC=N2)c(=O)[nH]c1=S | 100
COC(=O)C1=CN(C)C=C(C(=O)OC)C1c1ccc(C(C)C)cc1 | 103
COC(=O)c1cc(Oc2ccc(C(=O)OC)cc2N)cc(C(=O)OC)c1 | 104
Cn1c(NC2CC(=O)N(c3ccc(Cl)cc3Cl)C2=O)cc(=O)n(C)c1=O (stereo unspecified) | 102
O=C(N/C=C/c1ccco1)OCc1ccc(C(F)(F)F)cc1 | 118
O=C(Nc1cccc(Cl)c1)c1ncn(-c2ccccc2)n1 | 88
Cc1cc(C)c2c(N)c(S(=O)c3ccc(C(C)(C)C)cc3)sc2n1 (stereo unspecified) | 100
c1ccc(OCCn2cnc3ccccc32)cc1 | 98
O=S(=O)(c1ccc2c(c1)OCCO2)N1CCN(c2cccc(C(F)(F)F)c2)CC1 | 102
O=S(=O)(CCSc1nc2ccccc2s1)c1nc2ccccc2s1 | 101
O=S(=O)(c1cccs1)n1nnc2ccccc21 | 101
CCC(C)N1C(=O)C2C(C(=O)Nc3cccc(C)c3)C3C=CC2(O3)C1C(=O)NC1CCCC(C)C1C (stereo unspecified) | 97
COc1ccc(CC(=O)Nc2ccc(OC)cc2)cc1 | 100
CCCOc1ccc(C(=O)Nc2ccc(-c3nc4ccccc4o3)cc2)cc1 | 99
O=C(/C=C/c1ccccc1)NCc1nc2ccccc2[nH]1 | 102
CCOC(=O)c1c(C)noc1-c1ccco1 | 94
COC(=O)COc1cc2occ(-c3csc(C)n3)c(=O)c2cc1C | 94
Cc1nc2cc(NC(=O)C3COc4ccccc4O3)ccc2s1 (stereo unspecified) | 100
O=C(c1ccc(F)cc1)c1c[nH]c(C(=O)NCc2cccs2)c1 | 102
CCCN(C1=NC2CS(=O)(=O)CC2S1)c1ccccc1F (stereo unspecified) | 99

The list goes on, starting with the last 2 of the part before.
SMILES | Vaccinia pol inh
O=C(c1ccc(F)cc1)c1c[nH]c(C(=O)NCc2cccs2)c1 | 102
CCCN(C1=NC2CS(=O)(=O)CC2S1)c1ccccc1F (stereo unspecified) | 99
O=C(/C=C/c1ccc(-c2cc(Cl)ccc2Cl)o1)N1CCOCC1 | 88
CN(C)c1ccc(/C=C/C(=O)C2=C(O)c3ccccc3C2=O)cc1 | 99
CC(C)CC(=O)NCc1ccc2c(c1)OCO2 | 101
COc1cccc(-c2nnc(SCC(=O)NCCOc3ccccc3)n2-c2ccccc2)c1 | 99
COc1ccc(C2=C(Nc3ccc(C(=O)N4CCOCC4)cc3)c3ccccc3C2=O)cc1 | 102
Cc1ccc(Cl)cc1NC(=O)CC(NCC1CCCO1)C(=O)O (stereo unspecified) | 104
Cc1nnc(NC(=O)c2ccc3ccccc3c2)s1 | 100
CN(C(=O)c1cc2nc(-c3ccco3)cc(C(F)(F)F)n2n1)c1ccc(OC(F)(F)F)cc1 | 100
CCC(C)NC(=O)c1ccc(/C=C2/Sc3ccccc3NC2=O)cc1 (stereo unspecified) | 92
COc1ccccc1C(=O)Nc1ccc2oc(-c3ccc4ccccc4c3)nc2c1 | 100
Cc1cc(NC(=O)/C=C\c2ccccc2)nc2c1c(=O)oc1ccccc12 | 98
O=C(CSc1nnc2ccccn12)N1CCc2ccccc2C1 | 102
O=C(O)C1C2C=CC3(CN(c4ccc(Cl)c(F)c4)C(=O)C13)O2 (stereo unspecified) | 92
Cc1ccc(CCNC(=O)C2CCC(Cn3c(=O)[nH]c4ccsc4c3=O)CC2)cc1 (stereo unspecified) | 100
CCN1CCN(S(=O)(=O)c2ccc(F)cc2)CC1 | 101
COc1cccc2sc(N3CCc4ccccc4C3)nc12 | 98
COc1ccc(/C=N/n2c(=O)c(C(C)(C)C)nn3cnnc23)c(OC)c1 | 99
O=C(NCc1ccc2c(c1)OCO2)c1nnc(-c2ccccc2)o1 | 100
N=c1ccccn1CC(O)c1ccccc1 (stereo unspecified) | 101
Cc1ccc(S(=O)(=O)NCC(=O)N2CCC(C)CC2)cc1 | 100
S=C(Nc1cccc(Cl)c1)NC1CCSc2ccc(Cl)cc21 (stereo unspecified) | 96
O=C(COc1cccc2ccccc12)N1c2ccccc2CCc2ccccc21 | 100
O=C(CSc1nnc2scc(-c3ccccc3)n12)N1CCCCCC1 | 100
COc1ccc(CC(=O)OCCOc2ccccc2F)cc1 | 98
O=C(c1ccccc1)n1cc2c(n1)-c1ccccc1CS2 | 102

Four compounds out of the list, ordered by molar mass, rising.
SMILES | Vaccinia pol inh
CN(C)c1ccc(/C=C/C(=O)C2=C(O)c3ccccc3C2=O)cc1 | 99
CCC(C)NC(=O)c1ccc(/C=C2/Sc3ccccc3NC2=O)cc1 (stereo unspecified) | 92
Cc1ccc(CCNC(=O)C2CCC(Cn3c(=O)[nH]c4ccsc4c3=O)CC2)cc1 (stereo unspecified) | 100
COc1cccc(-c2nnc(SCC(=O)NCCOc3ccccc3)n2-c2ccccc2)c1 | 99

More records:
SMILES | Vaccinia pol inh
CCC(C)NC(=O)Nc1ccc(C)c(Cl)c1 (stereo unspecified) | 99
O=C(Nc1ccc(NC(=S)NC(=O)c2cc3ccccc3o2)cc1)c1ccco1 | 100
O=C(NCCC1=CCCCC1)c1ccc2c(Cl)c3c(nc2c1)CCC3 | 99
COC(=O)C1=C(NC(=O)c2ccc3c(c2)OCO3)CCS1 | 102
CC(NC(=O)CSc1nnc(-c2cccc(F)c2)n1-c1ccccc1)c1ccccc1 (stereo unspecified) | 95
Cc1cc(C(C)(C)C)cc(C)c1I | 100
FC(F)(F)c1ccc(Cn2cnc3ccccc32)cc1 | 106
CCn1c(=NC(=O)CSCC(=O)N2CCN(c3ccccc3)CC2)sc2cc(F)ccc21 | 100
COc1ccccc1NC(=O)CSc1ccccn1 | 107
CC(=O)n1cc(/C=c2/sc3nc4c(C)c(C)ccc4n3c2=O)c(-c2ccccc2)n1 | 94
COC(=O)NC(C)N1C(=O)C2C3C=CC(C3)C2C1=O (stereo unspecified) | 91
CCc1ccc(NC(=O)Cn2cc(S(=O)(=O)c3ccccc3)c(=O)c3ccccc32)cc1 | 96
CCN(CC)c1ccc(N=Cc2cccs2)cc1 | 99
c1ccc(CNC2=NCCC2)cc1 | 102
COc1ccc(CCNC(=O)CSc2nc3cc(OC)c(OC)cc3c3nc(C)nn23)cc1OC | 103
O=C(N=C1c2ccccc2CN1c1ccccc1)c1ccncc1 | 85
COc1ccc(Cn2c(=O)oc3ccccc32)cc1OC | 111
CCC(=O)Nc1cccc(-c2cn3cccnc3n2)c1 | 103
COC(=O)C1=C(O)/C(=C\c2cccs2)N=C1C | 100
CSc1nsc(C)c1C#N | 107
O=C(CCCn1c(=S)[nH]c2cc3c(cc2c1=O)OCO3)N1CCN(c2ccccc2F)CC1 | 101
S=c1[nH]nc(COc2ccc3c(c2)CCCC3)o1 | 100
CCc1ccc(C2C(C#N)=C(C)NC3=C2C(=O)CCC3)cc1 (stereo unspecified) | 93
Nc1ccc(S(=O)(=O)NC2=NCCCCC2)cc1 | 101
Cc1ccnc(SCC(=O)Nc2cccc(C(F)(F)F)c2)n1 | 94

Filtered by structure: the compounds so far containing an aryl thioether with sulfur outside any ring.
SMILES | Vaccinia pol inh
O=S(=O)(CCSc1nc2ccccc2s1)c1nc2ccccc2s1 | 101
COc1cccc(-c2nnc(SCC(=O)NCCOc3ccccc3)n2-c2ccccc2)c1 | 99
O=C(CSc1nnc2ccccn12)N1CCc2ccccc2C1 | 102
O=C(CSc1nnc2scc(-c3ccccc3)n12)N1CCCCCC1 | 100
CC(NC(=O)CSc1nnc(-c2cccc(F)c2)n1-c1ccccc1)c1ccccc1 (stereo unspecified) | 95
COc1ccccc1NC(=O)CSc1ccccn1 | 107
COc1ccc(CCNC(=O)CSc2nc3cc(OC)c(OC)cc3c3nc(C)nn23)cc1OC | 103
CSc1nsc(C)c1C#N | 107
Cc1ccnc(SCC(=O)Nc2cccc(C(F)(F)F)c2)n1 | 94

Next section
SMILES | Vaccinia pol inh
Cc1ccccc1S(=O)(=O)NC1=NCCCCC1 | 105
CC(C)CC(C(=O)O)N1C(=O)C2C3c4ccccc4C(c4ccccc43)C2C1=O (stereo unspecified) | 100
C1=C(c2ccccc2)Nc2ncnn2C1c1ccccc1 (stereo unspecified) | 101
COC(=O)N(C)CC1Cc2ccccc2O1 (stereo unspecified) | 100
CCOC(=O)c1nnc2c(Br)c(C)nn2c1C | 96
CCc1ccc2nc(N(CCN(C)C)C(=O)C3COc4ccccc4O3)sc2c1 (stereo unspecified) | 92
O=C1NC(CCC2CCCCC2)Oc2ccccc21 (stereo unspecified) | 96
OCc1cn(-c2ccccc2)nn1 | 100
COC(=O)CN1C(=S)N(C)C(=O)/C1=C/c1ccc(-c2ccc(Cl)cc2)o1 | 100
O=S(Cc1cc(Cl)nc(-c2ccccc2)n1)c1ccccc1 (stereo unspecified) | 91
COc1ccc2c(c1)c(CC(=O)NC1CCCC1)c(C)n2C(=O)c1ccc(Cl)cc1 | 100
Cc1ccc(CCNC(=O)C2CCN(c3nc4ccccc4o3)CC2)cc1 | 95
O=C1C2CC=CCC2C(=O)N1c1ccccc1O (stereo unspecified) | 100
CCOc1ccc(-c2nnc3ccc(SCc4ccc(C(=O)OC)o4)nn23)cc1 | 89
COc1ccc(CCNC(=S)N(C)C)cc1OC | 103
CCC1(CC)COC2(OC1)C(=O)Nc1ccc(F)cc12 | 99
O=C(O)CN1C(=O)CCCc2ccccc21 | 94
CC(C)(C)NC1=C(C(=O)c2ccccc2)N(CC(=O)c2ccccc2)S(=O)(=O)c2ccccc21 | 100
Cc1ccc2occ(CC(=O)Nc3nc4ccc(S(C)(=O)=O)cc4s3)c2c1 | 84
Cc1ccc(C(=O)N2c3ccc(C)cc3[C@@H]3CN(C)CC[C@H]32)cc1 | 100
CCCNC(=O)Cn1ncc2c3ccccc3n(Cc3ccccc3)c2c1=O | 102
CCOc1ccc(-c2cc(CCCC(=O)Nc3ccc(CC)cc3)no2)cc1 | 101
CC(=O)Nc1ccc(C(=O)OCC(=O)C(C)(C)C)cc1 | 100
CCn1cc(C(=O)NC2CCCC2)c(=O)c2cc(S(=O)(=O)N3CCCCC3)ccc21 | 104
O/N=C1\CCCCc2c1[nH]c1ccc(C3CCCCC3)cc21 | 102
SMILES | Vaccinia pol inh
COc1ccc(/C(C#N)=C/c2ccc3c(c2)OCO3)cc1OC | 100
COc1cccc(NC2=NCCCCC2)c1 | 103
CCc1c2c(nn1-c1cc(Cl)ccc1OC)CCCC2=O | 100
O=C(NC1CC1)c1ccc2c(c1)N(Cc1ccccc1)C(=O)CS2 | 97
Cc1cccc(Oc2ccc(N3C(=O)C4C5C=CC(C5)C4(C)C3=O)cc2)c1C (stereo unspecified) | 101
CSc1cccc(NS(=O)(=O)c2ccc(-n3cccn3)cc2)c1 | 103
Cc1[nH]c2ccccc2c1SCCNC(=O)Cc1ccccc1 | 100
Cc1ccc(S(=O)(=O)N2CCN(C/C=C/c3ccccc3)CC2)c(C)c1C | 100
CC(=O)N1CCN(C(=O)COc2ccc(C#N)cc2)CC1 | 93
COc1cccc(Nc2nnc(-c3cc4cccc(OC)c4oc3=O)s2)c1 | 94
CCCCCC(O)c1cccc(OCc2ccc3ccccc3n2)c1 (stereo unspecified) | 99
Cc1ccc(-n2nc3c(c2NC(=O)Cc2ccccc2)CSC3)c(C)c1 | 100
Cc1ccc(CCn2c(C)c(C)c3ccccc32)cn1 | 100
CC(C)OC(=O)c1cc2ccccc2oc1=O | 101
O=C1/C(=C/c2ccc(F)c(F)c2)CCC/C1=C\c1ccc(F)c(F)c1 | 100
O=C1c2ccccc2OCC12COC(c1ccccc1)OC2 (stereo unspecified) | 118
Cc1ccc(CNC(=O)C2CNc3cc(C)ccc3O2)cc1 (stereo unspecified) | 101
CCn1c2ccccc2c2nnc(N3CCc4ccccc4C3)nc21 | 119
COc1ccccc1/C=C(/C(=O)O)c1ccccc1 | 91
CC(C)c1nnc(NC(=O)c2c(F)cccc2F)s1 | 101
NC(=O)c1ccc(CC(=O)c2ccc(Cl)cc2)cc1 | 94
COc1ccccc1Nc1ncc(C(=O)NCCc2ccc(OC)c(OC)c2)c2ccccc12 | 100
CC1CC(OCC(O)C[N+]2(C)CCOCC2)CC(C)(C)C1 (stereo unspecified) | 100
COC(=O)COc1cc(C)ccc1C | 100
COc1cccc(NC(=O)COC(=O)CC23CC4CC(CC(C4)C2)C3)c1 | 106
SMILES | Vaccinia pol inh
Cc1nc(Cl)c2cc(-c3ccccc3)sc2n1 | 102
N#Cc1c(OCC(F)(F)F)ccc(S(=O)(=O)N2CCCC2)c1OCC(F)(F)F | 106
COc1ccc(NC(=O)CNc2ccc(C#N)cc2)cc1 | 96
CCOC(=O)c1cnc2c(OC)cccc2c1N1CC(C)CC(C)C1 (stereo unspecified) | 105
COc1ccc(C(=O)NCc2ccc3c(c2)OCO3)cc1 | 100
NNC(=O)c1c(O)c2c([nH]c1=O)CCCC2 | 98
COc1ccc(NC(=S)NC(=O)COc2ccccc2)cc1 | 95
Cc1ccn2cc(CNS(=O)(=O)c3ccc(Cl)s3)nc2c1 | 97
CCSc1nnc(-c2ccc(OC)cc2)n1-c1ccccc1 | 98
CCOc1ccc(NC(=S)N2CCSC2c2ccc(C#CC(C)(C)O)s2)cc1 (stereo unspecified) | 95
CCOc1ccc(N=c2scc(-c3ccc(S(=O)(=O)N4CCCC4)cc3)n2CC)cc1 | 100
O=C(Cc1ccccc1)Nc1c2c(nn1-c1ccccc1)CS(=O)C2 (stereo unspecified) | 100
CSc1ccc(C(N)CC(=O)O)cc1 (stereo unspecified) | 95

Compound activity (PubChem)
